# Screening data: PubChem, National Center for Advancing Translational Sciences (NCATS)
# VACV mCherry inh: inhibitors of vaccinia virus infection (mCherry reporter signal); hit rate 0.63% among 310,000; AID 720579; Vaccinia virus mCherry reporter infection, fluorescence; about a quarter of the inactives have no number; Potency, µM (doses to about 36.5 µM), for inactives: top-dose activity change, negative = inhibition, most hits filed as inhibitors; active = well fitted inhibition curve with a large enough effect; inconclusive = small, poorly fitted or top-dose-only effect; inactive = no such curve, though single readings can be large or run the other way; tested in A549 cells; further: nearly all actives have a fitted effect of over 35% in size; inactives centre near -10
# Vaccinia Venus: vaccinia inhibition (Venus reporter); Vaccinia virus Venus reporter expression, fluorescence; Potency, µM (highest dose often 36.5 µM), for the others: top-dose activity change, negative = inhibition, most hits filed as inhibitors; hit rate 0.46% among 330,000; AID 720580; active means well fitted inhibition curve with a large enough effect; inconclusive means small, poorly fitted or top-dose-only effect; inactive means no such curve, though single readings can be large or run the other way; tested in A549 cells; further: nearly all actives have a fitted effect of over 30% in size; inactives centre near -10
# Active calls of the source: *; i = inactive; ? = inconclusive; . = not tested or not shown; & = joins results of further samples; [ ] = another dose, or the depositor's remark. On the % scale 0 is the no-effect control and ±100 the full control effect; potency means the concentration at half of the fitted maximal effect.
cpd	molecule	Vaccinia Venus	VACV mCherry inh
1	COCCn1c(SCC(=O)NNC(=O)Cc2ccccc2)nc2ccccc2c1=O	-9%	0%
2	COc1ccc(NC(=S)/N=C(\N)Nc2nc(C)c3ccccc3n2)cc1	-28%	-33%
3	Cc1nnc(SCC(=O)NNC(=O)C(C)C)[nH]c1=O	-13%	-17%
4	O=C(c1ccc(F)cc1)N1CCC(c2nc3ccccc3s2)CC1	-24%	-3%
5	Cc1c(C(=O)NCc2cccc(C(F)(F)F)c2)sc(=O)n1Cc1ccccc1F	8%	9%
6	Cc1c(Cl)cccc1NC(=O)NCCCN1CCCC1=O	-6%	-10%
7	CCOC(=O)COc1c(/C=N\O)cc(Cl)cc1OC	-1%	-1%
8	Cc1ccc(CNC(=O)CCCn2c(=O)c3ccccc3n(CC(=O)Nc3ccc(C)cc3)c2=O)cc1	-12%	-14%
9	COC(=O)c1cc(NC(=O)c2ccc3c(c2)N(Cc2cccc(Cl)c2)C(=O)c2ccccc2S3=O)cc(C(=O)OC)c1 (stereo unspecified)	-14%	-17%
10	CN1c2ccccc2C(=O)NC1c1ccc([N+](=O)[O-])s1 (stereo unspecified)	-7%	i
11	Cc1nc2ccccc2c(=O)n1-c1ccc(Cl)c(Cl)c1	-3%	-5%
12	Cc1ccc(S(=O)(=O)/N=C2/C=C(Sc3ncn[nH]3)C(=O)c3ccccc32)cc1	7.1µM*	2.8µM*
13	O=C(C1CCCC1)N(c1ccccc1)C1C=CS(=O)(=O)C1 (stereo unspecified)	-14%	-21%
14	Cc1cc2cc3c(cc2nc1SCC(=O)Nc1ccccc1)CCC3	-9%	-8%
15	Cc1ccc(OCCC(=O)OCC(=O)NC(=O)c2ccccc2)cc1	-4%	-25%
16	O=[N+]([O-])c1c(Nc2ccccc2O)ccc2nonc12	-2%	-20%
17	Cc1ccc(C(=O)Nc2ccccc2Cl)cc1	-5%	i
18	O=C(Nc1ccccc1)[C@@H]1CC=C[C@@H]2CCN(Cc3ccc(Cl)c(Cl)c3)C(=O)[C@@H]21	?	?
19	COc1ccccc1NS(=O)(=O)c1cc(NC(=O)Nc2ccccc2)ccc1N1CCCCC1	-22%	-29%
20	COc1ccccc1CNS(=O)(=O)c1ccc(-n2cnnn2)c(C)c1	-14%	-17%
21	COc1ccc(CCC(=O)NCc2cn3ccsc3n2)cc1	0%	i
22	CCc1nn(CC(=O)N2CCC(C)CC2)c(=O)c2cc3occc3n12	-5%	-20%
23	[N-]=[N+]=CC(=O)CC(c1ccccc1)N1C(=O)c2ccccc2C1=O (stereo unspecified)	1%	-4%
24	COC(=O)c1ccccc1Oc1ccc(NC(=O)CCCl)cc1	1%	3%
25	CC(C)(C)OC(=O)N1CCC(c2c(C(=O)NCCN3CCC(Cc4ccccc4)CC3)cnn2-c2cccc(Cl)c2)CC1	11µM*	11µM*
26	Cc1sc2ncnc(Sc3ccccc3C(=O)Nc3ccc(C#N)cc3)c2c1C	-17%	?
27	CCNC(=O)C1(C)CCN1CCC(=O)c1ccc(Br)cc1 (stereo unspecified)	7%	16%
28	O=C(CN1CCc2[nH]c3ccccc3c2C1)N1CCCCC1	6%	.
29	COc1ccc(Cc2c(C(C)(C)C)nc3ccc(C)cn23)c(C)c1	-9%	i
30	COc1ccc(-c2nc3n(c2Br)CCC3)cc1	-12%	.
31	COc1ccc(NC(=O)C2CCCN(S(=O)(=O)c3ccc4c(c3)CCCC(=O)N4)C2)c(OC)c1 (stereo unspecified)	-3%	-4%
32	CCOC(=O)c1ccc(Nc2c(-c3ccc(O)c(OC)c3)nc3nc[nH]n23)cc1	-14%	-16%
33	CCOC(=O)c1sc(NC(=O)CSc2nncn2C)nc1C	-6%	-10%
34	CC(C(=O)Nc1ccccc1F)N1CCN(S(=O)(=O)c2ccc(C(F)(F)F)cc2)CC1 (stereo unspecified)	-11%	i
35	Cc1ccc(S(=O)(=O)NCc2ccc(C(=O)NCCCN3CCC(Cc4ccccc4)CC3)cc2)cc1	-12%	-23%
36	O=c1c2ccccc2nc(/C=C/c2cccc(Br)c2)n1CCCO	-23%	i
37	CCOc1cc(-c2nc(-c3ccncc3)no2)cc(OCC)c1OCC	-17%	-14%[1.46 µM]
38	CCn1ncc(CNC(=O)CCSc2nc(-c3ccco3)cc(C(F)(F)F)n2)c1C	-13%	-1%[1.46 µM]
39	CC(OC(=O)CNC(=O)c1ccc(Cl)c([N+](=O)[O-])c1)C(=O)NC1CCCCC1C (stereo unspecified)	-17%	i
40	COc1ccccc1-n1nc(-c2ccccc2)c2cnc3cc(C(F)(F)F)ccc3c21	-6%	-1%
41	O=C(Nc1ccccc1C(=O)N1CCOCC1)c1ccc(F)cc1	-9%	-12%
42	O=C(NCC(=O)N(c1ccc(F)cc1)C(C(=O)NC1CCCCC1)c1cccnc1)c1ccco1 (stereo unspecified)	3%	1%
43	O=C(COC(=O)CNC(=O)c1ccccc1Cl)NC1CCCC1	2%	i
44	O=C(c1ccc2c(c1)OCO2)N1CCN(c2ccc(C(F)(F)F)cn2)CC1	-26%	-6%
45	Cc1ccc(N(C)C2=NC(=O)CS2)cc1Cl	-11%	-21%
46	COC(=O)c1c(N2C(=O)CC(Sc3ccccc3C(=O)O)C2=O)sc2c1CCCC2 (stereo unspecified)	9%	i
47	O=S(=O)(NCc1nnnn1-c1ccc(F)cc1)c1ccc(F)cc1	-7%	-5%
48	COc1ccc(OC)c(C(c2nnnn2C2CCCC2)N2CCN(c3ccc(F)cc3)CC2)c1 (stereo unspecified)	-3%	.
49	Cc1cc(F)ccc1NCc1ccc([N+](=O)[O-])cc1	-18%	-17%
50	Cc1ccccc1N1CCN(Cc2nc(Cc3ccccc3)no2)CC1	-4%	i
51	Nn1c(CN2CCCCC2)nc2ccccc2c1=O	-4%	i
52	CNC(=O)OCc1n(C)cc[n+]1C	0%	i
53	Cc1ccc(/C(O)=C2/C(=O)C(=O)N(CCN3CCOCC3)C2c2ccccn2)cc1 (stereo unspecified)	2%	i
54	COc1ccc(-c2cc3nnc(-c4ccccc4)nc3s2)cc1	1%	i
55	CCCNC(=O)N1CCN(c2nc(C(C)C)c3c(c2C#N)CC(C)(C)OC3)CC1	?	-9%
56	Cc1cccn2c(=O)c(/C=C(\C#N)c3nc4ccccc4[nH]3)c(Oc3ccc(C(C)(C)C)cc3)nc12	6%	4%
57	COC(=O)c1ccc(NC(=O)C(=O)N2CCN(C(=S)Nc3ccc(OC)cc3)CC2)cc1	-16%	-15%
58	COc1ccc(NC(=O)Cn2c(=O)n(Cc3ccccc3Cl)c(=O)c3cc(OC)c(OC)cc32)cc1	-11%	-21%
59	CCOC(=O)N1CCN(C2CC(=O)N(c3ccc(Cl)c(Cl)c3)C2=O)CC1 (stereo unspecified)	-7%	.
60	COc1ccccc1N(Cc1cc2cccc(C)c2[nH]c1=O)C(=O)C(C)C	?	.

# New compounds follow.
cpd	molecule	Vaccinia Venus	VACV mCherry inh
61	O=C(COC(=O)C1CC(=O)N(Cc2ccco2)C1)Nc1ccccc1[N+](=O)[O-] (stereo unspecified)	-3%	i
62	Nc1cc(=O)[nH]c(SCC(=O)Nc2cc(Cl)ccc2Cl)n1	-17%	-24%
63	CCCCC(CC)C(=O)O (stereo unspecified)	-4%	-1%
64	COc1cccc(-c2nc(CS(=O)CC(=O)O)c(C)o2)c1 (stereo unspecified)	-11%	i
65	CCOC(=O)c1nnc2ccnn2c1N	2%	-9%
66	CCOc1ccc(S(=O)(=O)N2CCCC(C(=O)N3CCCC3)C2)cc1 (stereo unspecified)	-10%	-2%
67	CCN1CCN(c2ccc([N+](=O)[O-])cc2C(=O)OC)CC1	-13%	-9%
68	COc1cc(OC)cc(C(=O)N[C@H](C(=O)OCC(=O)NC(C)c2ccccc2)C(C)C)c1 (stereo partly specified)	-14%	i
69	CCOC(=O)COc1c(Cl)cc(C2NC(=S)NC(c3ccccc3)=C2C(C)=O)cc1OCC (stereo unspecified)	-15%	-16%
70	N#CCCn1cc(/C=C2\NC(=S)N(c3ccccc3)C2=O)c(-c2ccc(-c3ccccc3)cc2)n1	-20%	-23%
71	NC(N)=NS(=O)(=O)c1ccc(NC(=S)NC(=O)/C=C/c2ccc(F)cc2)cc1	-14%	-2%
72	N#Cc1c(NC(=O)CSc2ncn[nH]2)sc2c1CCCCC2	?	?
73	O=C(CSc1nc2c([nH]c3ccccc32)c(=O)n1-c1ccccc1)Nc1cccc(C(F)(F)F)c1	-17%	-22%
74	CCOC(=O)c1sc(NC(=O)OC)c(C(=O)OC)c1C	1%	8%
75	O=C(O)C(Cc1ccc(O)cc1)N1C(=O)c2c(Cl)c(Cl)c(Cl)c(Cl)c2C1=O (stereo unspecified)	-16%	-1%

# Reformatted: results already given
68) COc1cc(OC)cc(C(=O)N[C@H](C(=O)OCC(=O)NC(C)c2ccccc2)C(C)C)c1 (stereo partly specified)
69) CCOC(=O)COc1c(Cl)cc(C2NC(=S)NC(c3ccccc3)=C2C(C)=O)cc1OCC (stereo unspecified)
70) N#CCCn1cc(/C=C2\NC(=S)N(c3ccccc3)C2=O)c(-c2ccc(-c3ccccc3)cc2)n1
71) NC(N)=NS(=O)(=O)c1ccc(NC(=S)NC(=O)/C=C/c2ccc(F)cc2)cc1
Screen / compound no.,68,69,70,71
Vaccinia Venus,-14%,-15%,-20%,-14%
VACV mCherry inh,i,-16%,-23%,-2%

# (next part)
cpd	molecule	Vaccinia Venus	VACV mCherry inh
76	Cc1ccc(NC(=O)CN(C)C(=O)CSc2nnc(NC(C)C)s2)cc1	-11%	-14%
77	O=C(O)C1CC=CCC1C(=O)Nc1cccc(Cl)c1 (stereo unspecified)	-10%	.
78	O=C(NCCc1ccccc1)c1ccc(NCC2CCCO2)c([N+](=O)[O-])c1 (stereo unspecified)	-11%	-14%
79	CN1CCN(c2ccc(NC(=O)c3ccc(Cl)cc3)cn2)CC1	-4%	i
80	COc1ccc(NC(C)=O)cc1NC(=O)CSc1nnc(C2CCCCC2)n1N	-15%	-2%
81	COc1ccc(OC)c(-c2cc(C(=O)N3CCOCC3)no2)c1	-2%	6%
82	CC(C)c1ccc(NC(=O)C(Cc2ccccc2)NS(=O)(=O)c2ccc3c(c2)oc(=O)n3C)cc1 (stereo unspecified)	-9%	-16%
83	CCOC(=O)N1CCN(c2ccccc2O)CC1	-14%	-18%
84	CN(C)C(=O)Oc1cc(OC(=O)N(C)C)cc(C(O)CNC(C)(C)C)c1 (stereo unspecified)	-5%&-6%&3%	-7%
85	CCCC(=O)Nc1cccc(-c2nc3ncccc3o2)c1	1%	-11%
86	Cc1sc2ncnc(N3CCC(C(=O)Nc4cc(S(C)(=O)=O)ccc4Cl)CC3)c2c1C	-24%	-10%
87	COc1cc(C)ccc1OCCON1C(=O)CCC1=O	-10%	-6%
88	COc1ccc(-n2c(NC(=O)c3ccco3)c(C#N)c3nc4ccccc4nc32)cc1	-14%	-13%
89	O=C(/C=C/c1c(Cl)cccc1Cl)NCc1ccccc1	21%	-13%
90	O=C1C=C(c2ccc3ncccc3c2)C[C@@H](c2ccc3c(c2)OCO3)C1	-24%	?
91	Fc1ccc(NC(=S)NCCN2CCOCC2)cc1	12%	-20%
92	CCN(CC)CCNC(=O)c1cc2c(=O)oc3ccc(C)cc3c2s1	-2%	4%
93	O=C(N/N=C/c1ccccc1OCC(=O)N1CCCC1)C(=O)Nc1ccccc1F	-3%	-8%
94	Cc1cccc(-n2ncc3c(NCc4ccco4)ncnc32)c1	?	.
95	COCCCNC(=O)Cn1nnc(-c2ccccc2NC(=O)c2ccc(F)cc2)n1	-11%	i
96	COc1ccc(Cl)cc1C(=O)OCC(=O)N1CCCC(C)C1 (stereo unspecified)	-4%	-7%
97	COc1cccc(-n2c(C)nc3cc(C(=O)O)ccc32)c1	9%&-9%	5%&-1%
98	COc1ccc(-c2[nH]ncc2CN(C)C(C)c2ccncn2)c(F)c1 (stereo unspecified)	-5%	-7%
99	COc1ccc(CC2(CO)CCN(C/C=C/c3ccccc3OC)CC2)cc1	-27%	-11%
100	CC(=O)c1ccc(NC(=O)c2nc(-c3ccc(Cl)cc3)n3c2CCCCC3)cc1	-12%	-23%
101	COc1cc(NC(=O)c2ccc(N)nc2)cc(C(=O)Nc2cccc(C(F)(F)F)c2)c1	-21%&-23%	?
102	COc1cc(O)c(C(=O)/C=C/c2ccccc2)c(OC)c1	?	?
103	O=C(COc1ccc(F)cc1Br)N1CCN(S(=O)(=O)/C=C/c2ccccc2)CC1	-27%	-18%
104	Nc1ncnc2c1ncn2[C@@H]1O[C@H](COP(=O)(O)OP(=O)(O)CP(=O)(O)O)[C@@H](O)[C@H]1O	-4%	-10%
105	CCC(CO)Nc1nc2ccc(Cl)cc2c2ccccc12 (stereo unspecified)	?	?

# Values in list order from the list:
# VACV mCherry inh, compounds 97 to 104 → 5%&-1%, -7%, -11%, -23%, ?, ?, -18%, -10%

# Other results follow.
cpd	molecule	Vaccinia Venus	VACV mCherry inh
106	COc1ccc(S(=O)(=O)NC(=O)C2(C)CCN2C(=O)Cc2ccccc2Cl)cc1 (stereo unspecified)	-5%	5%
107	COc1ccc(OC)c(/C=N/N=C2\SCC(=O)N2Cc2ccco2)c1	-21%	-29%
108	COCCn1c(C)cc(O)c(C(c2ccccc2Cl)N2CCN(c3ccccc3)CC2)c1=O (stereo unspecified)	-5%	-3%
109	COC(=O)c1ccc(COn2nnc3ccccc32)cc1	-2%	-2%
110	CC(C)NC(=O)C(=O)NCCN1CCN(C(=O)c2ccc(C(C)(C)C)cc2)CC1	-6%	i
111	CC[N+](CC)(CC)CC(=O)Nc1c(C)cccc1C	-14%	-10%
112	CCOC(=O)c1c(-c2ccco2)csc1NC(=O)COC(=O)c1cnccn1	-15%	i
